Compound activity: PubChem, National Center for Advancing Translational Sciences (NCATS)
Sfp inh = Sfp phosphopantetheinyl transferase inhibition. Q9F4F7. Biochemical Sfp PPTase activity, qHTS. Potency, µM, for the others: max response, negative = inhibition, actives largely listed as inhibitors. 3.5% of 310,000 active; active means well fitted inhibition curve with a large enough effect; inconclusive means small, poorly fitted or top-dose-only effect, or another doubt; inactive means no such curve, though single readings can be large or run the other way;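 further: the enzyme is Sfp with the accession as filed and its product quenches rhodamine fluorescence; potency means the concentration at half of the fitted maximal effect; 0% = enzyme reaction without inhibitor and -100% = no enzyme wells; top concentration of the series not given in the record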
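Compounds were incubated with enzyme (final 15 nM) for 15 min at room temperature before substrate addition started the reaction. Fluorescence at 525 nm excitation, 598 nm emission was recorded immediately and after 30 minutes.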
CtBP-E1A inh = inhibitors of CtBP/E1A interaction. AlphaScreen GST-E1A/His-CtBP binding, 1536-well; active compounds read low; control for the full effect not named in the record. activity change, % (no concentration beside the values). 0.49% of 340,000 active; in the data active means activity change below about -65%; inconclusive means about -30% to -65%; inactive means above about -30%; further: on the % scale 0 is the no-effect control and ±100 the full control effect
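GST-E1A and His-tagged CtBP (125 nM each as 5X stock) were preincubated with pin-transferred compound for 2 h at 37 °C in the dark, then glutathione donor and nickel acceptor beads were added for 1 h before AlphaScreen reading.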
PINK1 modulator = modulators of PINK1 expression. PINK1 immunofluorescence, high-content cytometry, 24 h. Potency, µM (top dose mostly 76.6 µM), inactives show at the highest dose activation (PINK1 increase), actives largely listed as activators. 0.2% of 410,000 active. AID 624263; active = well fitted activation curve with a large enough effect; inconclusive = small, poorly fitted or top-dose-only effect; inactive = flat fitted curve, though single readings scatter; cell line not stated here;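 further: potency means the concentration at half of the fitted maximal effect; % of control where 0% means no effect; nearly all actives have a fitted effect of over 65% in size; a mitochondrial uncoupler was the plate control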
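Cells are seeded, rested 12 hours, then given compound at five concentrations or DMSO for 24 hours. After fixation, blocking and antibody staining, PINK1 amount and mitochondrial localization are scored; CCCP serves as control.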
D2 PAM = human D2 receptor positive allosteric modulation; P14416; potentiation, % (no concentration beside the values); DiscoveRx D2 beta-arrestin cells, luminescence, 90 min; 100% = 57 uM dopamine signal; AID 624464; 0.23% of 360,000 active; active = potentiation of 50% or more; inconclusive = 30% to 50%; inactive = 30% or less;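 further: compound concentration not given in the record; tested on top of an EC20 dose of dopamine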
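D2 cells co-treated with compound plus 50 nM dopamine (EC20) for 90 min at 37 deg C to detect potentiation. Beta-arrestin recruitment was read as enzyme-fragment luminescence after 1 h at ambient temperature. Full response was set by 57 uM dopamine.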
D2 ag = agonists of human D2 dopamine receptor (beta-arrestin). P14416. DiscoveRx PathHunter D2 beta-arrestin, luminescence, 90 min; 100% = 57 uM dopamine signal. activation, % (concentration not given with the values). 0.084% of 360,000 active. AID 624465; in the data active = activation above about 40%; inconclusive = about 15% to 40%; inactive = below about 15%; further: compound concentration not given in the record; the text of the record calls up to 30% inactive
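DiscoveRx PathHunter D2 beta-arrestin cells (2,100/well) attached overnight, then compound-stimulated 90 min at 37 C in HBSS/10 mM HEPES/0.1% Tween-20 buffer; beta-galactosidase complementation read by luminescence after 1 h at ambient temperature. Dopamine 57 uM final (EC100) as control.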
Six1-Eya2 inh = Six1/Eya2 interaction inhibition; AlphaScreen GST-Six1/His-Eya2 binding, biochemical; active compounds read low; control for the full effect not named in the record; activity change, % (test concentration not listed); 0.56% of 360,000 active; Q15475+O00167; in the data active = activity change below about -65%; inconclusive = about -30% to -65%; inactive = above about -30%; further: on the % scale 0 is the no-effect control and ±100 the full control effect
Target sequence (O00167 whole entry, looked up): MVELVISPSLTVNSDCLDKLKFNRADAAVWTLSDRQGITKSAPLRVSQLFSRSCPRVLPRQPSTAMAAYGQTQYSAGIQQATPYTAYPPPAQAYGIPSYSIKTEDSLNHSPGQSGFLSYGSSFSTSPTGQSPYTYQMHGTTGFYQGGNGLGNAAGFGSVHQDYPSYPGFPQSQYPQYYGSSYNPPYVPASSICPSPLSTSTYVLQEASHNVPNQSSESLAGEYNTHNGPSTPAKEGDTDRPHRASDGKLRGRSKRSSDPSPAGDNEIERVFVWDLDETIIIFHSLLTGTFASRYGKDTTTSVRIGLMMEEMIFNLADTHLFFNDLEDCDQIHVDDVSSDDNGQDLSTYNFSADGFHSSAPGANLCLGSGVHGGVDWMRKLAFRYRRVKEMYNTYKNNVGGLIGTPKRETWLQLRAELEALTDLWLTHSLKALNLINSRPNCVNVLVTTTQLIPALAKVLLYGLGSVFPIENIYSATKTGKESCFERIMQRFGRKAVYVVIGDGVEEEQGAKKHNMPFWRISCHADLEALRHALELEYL
Target sequence (Q15475 whole entry, looked up): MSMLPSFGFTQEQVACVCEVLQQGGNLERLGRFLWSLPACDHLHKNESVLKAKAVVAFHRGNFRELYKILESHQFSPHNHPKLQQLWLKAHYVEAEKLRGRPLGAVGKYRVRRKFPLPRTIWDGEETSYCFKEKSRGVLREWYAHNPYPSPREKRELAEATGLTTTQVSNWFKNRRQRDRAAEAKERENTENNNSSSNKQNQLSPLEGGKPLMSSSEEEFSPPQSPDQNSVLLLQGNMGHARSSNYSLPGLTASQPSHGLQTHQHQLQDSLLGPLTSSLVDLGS
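AlphaScreen luminescence read after one hour at 37 °C in darkness. Pin-transferred compounds met GST-Six1 and His-Eya2 protein (5X stock 250 nM/500 nM) plus glutathione donor and Ni-chelate acceptor beads (5X, 50 ug/mL).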
TRPV1 PAM = enhances activation of the human vanilloid receptor TRPV1 | Q8NER1 | TRPV1-expressing cells, Fluo-8 calcium influx, capsaicin EC20 potentiation; host cell line not named in the record; control for the full effect not named in the record | potentiation, % at 8.33 µM | 0.02% of 320,000 active; active means potentiation above 80%; inconclusive means 30% to 80%; inactive means below 30%; further: 0% is about no effect
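Fluo-8 calcium influx in TRPV1-expressing cells, kinetic read (ex 480/em 520 nm). Compound added and read 3 min for agonist activity, followed by capsaicin at EC20 final and 2 min further read for enhancement.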
* hit, by the source's call; ? = inconclusive; nt = not tested or not shown; [ ] = another dose, or the depositor's remark.

SMILES	Sfp inh	CtBP-E1A inh	PINK1 modulator	D2 PAM	D2 ag	Six1-Eya2 inh	TRPV1 PAM
O=C(NNS(=O)(=O)c1ccccc1[N+](=O)[O-])c1cccc(Cl)c1	-2.8%	-4.3	1.9%	9.3	-1.1	2.8	8.7
Cc1nn2c(C(F)(F)F)c3c(nc2c1-c1ccccc1)CCC3	20.4%	-2.4	-0.5%	-4.1	-3.3	-0.4	-1.8
Cc1ccc(C(=O)Nc2ccc(C(=O)N/N=C/c3ccc(C)o3)cc2)cc1	-13.5%	0.5	3.8%	-6.0	-3.1	-14.7	-12.6
C=CCn1c(SCc2cc(=O)n3ccsc3n2)nnc1C1CCCCC1	2.3%	3.4	7.2%[38.3 µM]	-9.9	-1.2	-2.3	7.6
CCCCN(C(=O)c1cccc(-n2cnnn2)c1)c1c(N)n(CC(C)C)c(=O)[nH]c1=O	nt	3.1	-0.4%	0.1	-0.7	1.6	1.3
OC1=C(O)c2nc3ccccc3nc21	-7.3%	-9.4	-1.5%[38.3 µM]	-15.3	-1.0	-1.7	23.9
CC(C)(C)OC(=O)N1CCC[C@H]1C(=O)NCc1ccc(F)cc1F	nt	5.2	-0.6%	nt	nt	3.3	nt
Cc1ccc(CCNC(=O)C2CCN(S(=O)(=O)N3CCOCC3)CC2)cc1	5.0%	nt	-0.4%	-11.1	-0.8	2.3	12.2
Cn1c(=O)oc2cc(S(=O)(=O)NCc3ccccc3)ccc21	0.3%	5.0	nt	-17.2	2.3	7.0	-17.0
Cc1cc(=O)n(C)c(=O)n1CCCCCCOc1cccc([N+](=O)[O-])c1	9.7%	7.3	4.3%	-8.1	-6.1	-9.2	16.7
O=C1CN(c2nc(-c3ccccc3)c3cc(Cl)ccc3n2)c2ccccc2N1	12.6%	4.3	?	-10.3	-8.6	-8.6	14.7
OCCC1CN(Cc2ccc(Oc3ncccn3)cc2)CCN1C1CCCC1 (stereo not drawn)	17.6%	-19.7	0.2%	-4.8	-2.8	1.3	-6.3
O=C(O)CCCC(=O)Nc1nc(-c2ccc(F)cc2)cs1	-5.7%	-3.8	2.1%	-8.6	-1.0	-3.1	6.7
CCc1nnc(NC(=O)C(C)Sc2ccccc2)s1 (stereo not drawn)	19.1%	3.6	-0.1%	-2.3	-1.7	12.7	6.7
CSc1nnc2c(n1)OC=Nc1ccc(Br)cc1-2	14.6%	4.8	3.9%	3.2	-3.1	2.1	-7.2
CC(C)N(C(=O)[C@H]1C[C@H](CC(=O)NCc2ccco2)C(=O)N2CCc3c([nH]c4cc(CCC(=O)N(C)C)ccc34)[C@]12C)C(C)C	nt	3.4	0.0%	nt	0.9	1.2	nt
CCOC(=O)c1csc(-c2snnc2C)n1	9.0%	-19.0	-1.9%	-4.8	-2.1	-1.8	2.7
Cc1ccc(NC(=O)n2ccc(-c3ccc(-n4ccnc4)cc3)n2)cc1	6.1%	0.7	-0.9%	-12.5	-4.4	8.3	-14.0
C=CCNc1nc(C(=O)OCC(=O)Nc2ccc(S(N)(=O)=O)cc2)cs1	nt	-11.2	0.1%	-1.8	-2.9	-11.0	-1.8
COC(=O)c1cccc(NC(=O)Cn2nnc3ccccc32)c1	7.9%	-0.4	7.1%	4.6	-2.7	0.9	-16.7
COc1ccc2nc(C)cc(SCC(=O)NNC(=O)COc3cccc4ccccc34)c2c1	?	-19.1	-2.0%	-6.2	2.5	-4.4	3.1
CCCNc1c(NS(=O)(=O)c2c(F)c(F)c(F)c(F)c2F)c(=O)oc2ccccc12	23.0%	-1.3	-1.0%	-2.2	-0.1	-1.1	0.3
CCOCCn1c(CN2CCN(CC)CC2)nc2c1c(=O)n(C)c(=O)n2C	0.8%	0.0	4.3%	2.7	-0.4	22.2	-12.8
CCc1cc2c(=O)n(CCCOC)c(SCC(=O)Nc3oc(C)c4c(C)n[nH]c(=O)c34)nc2s1	nt	0.2	5.3%	-1.6	-2.3	-2.0	-10.4
COc1cccc(C(O)c2nc(-c3ccc(F)cc3OC)cs2)c1 (stereo not drawn)	nt	0.0	9.3%	2.2	2.9	17.1	nt
CC(Oc1ccc(-n2cnnn2)cc1)C(=O)O (stereo not drawn)	-0.6%	7.5	-0.2%	-0.6	0.9	5.3	-21.2
CC1(C(=O)NS(=O)(=O)c2ccccc2Cl)CCN1C(=O)CC1CCCC1 (stereo not drawn)	nt	1.1	0.3%	-4.6	-6.7	14.4	nt
CC(C)c1ccc(C(=O)Nc2cccnc2)cc1	7.2%	0.0	0.4%	-9.8	-2.4	-3.3	-22.3
O=C(Nc1ccc2c(c1)CCC2)C1CCN(c2c3c(nc4ncnn24)CCC3)CC1	8.7%	0.0	-3.0%[38.3 µM]	-5.3	-1.4	-8.8	15.5
COc1cccc(-c2nc(CS(=O)(=O)CC(=O)N3CCN(C4CCCCC4)CC3)c(C)o2)c1	1.8%	-6.2	0.9%	-6.8	-3.6	-0.4	-14.1

Single entries from above.
In Six1-Eya2 inh, `CC(C)c1ccc(C(=O)Nc2cccnc2)cc1` has the entry -3.3
In CtBP-E1A inh, `CC(Oc1ccc(-n2cnnn2)cc1)C(=O)O` (stereo not drawn) has the entry 7.5
In PINK1 modulator, `CCOCCn1c(CN2CCN(CC)CC2)nc2c1c(=O)n(C)c(=O)n2C` has the entry 4.3%
In CtBP-E1A inh, `COc1cccc(C(O)c2nc(-c3ccc(F)cc3OC)cs2)c1` (stereo not drawn) has the entry 0.0

Other records follow.
SMILES	Sfp inh	CtBP-E1A inh	PINK1 modulator	D2 PAM	D2 ag	Six1-Eya2 inh	TRPV1 PAM
CC(C)(C)c1cc(C(=O)O)c(CN2CCCCC2)o1	14.9%	-3.3	0.6%	-20.2	-3.3	-3.0	-2.7
CCCn1c2ccccc2c2cnn(CC(=O)N3CCOCC3)c(=O)c21	10.3%	nt	-0.7%	-8.9	-0.3	-5.6	-10.9
Cc1cccc(/C=N/NC(=O)c2cc3c(s2)-c2ccccc2CC3)c1	-9.1%	9.2	5.9%	-0.4	0.4	2.3	-9.8
Nc1nc(=O)n(C2CC(O)C(CO)O2)cc1Cl (stereo not drawn)	nt	5.0	1.4%	-4.9	-3.0	0.7	nt
O=C(NCc1ccco1)C1CC(c2c(Cl)cccc2Cl)=NO1 (stereo not drawn)	79.4µM*	0.3	4.2%	-10.7	-1.7	-3.7	-8.1
CCN(c1ccccc1)S(=O)(=O)c1ccc(Cl)c(NC(=O)CN2C(=O)NC3(CCCC3)C2=O)c1	-5.2%	nt	4.8%	-13.1	-11.3	3.0	0.4
COc1ccc(-c2ccc(CN3C(CC(C)C)C(=O)N(Cc4cn(CC5CCCCC5)nn4)CCS3(=O)=O)cc2)cc1OC (stereo not drawn)	nt	2.0	1.9%	3.6	-1.5	2.6	nt
CCSc1nnc(NC(=O)C2CCN(S(=O)(=O)c3ccccc3C(F)(F)F)CC2)s1	7.6%	-2.3	-1.5%	6.7	-2.1	-4.0	10.9
O=C1C(Cl)=C(NS(=O)(=O)c2ccc([N+](=O)[O-])cc2)C(=O)c2ccccc21	-17.8%	-3.3	1.2%	-2.3	-14.9	-6.7	-0.1
Cc1ccc(C(=O)NC(=S)Nc2ccc(Oc3ccc(Cl)cc3)cc2)cc1	11.4%	-3.1	1.5%	-4.2	-3.1	-9.1	10.1

Gathered by group: the entries above containing an aryl methoxy group (4)
SMILES	Sfp inh	CtBP-E1A inh	PINK1 modulator	D2 PAM	D2 ag	Six1-Eya2 inh	TRPV1 PAM
COc1ccc2nc(C)cc(SCC(=O)NNC(=O)COc3cccc4ccccc34)c2c1	?	-19.1	-2.0%	-6.2	2.5	-4.4	3.1
COc1cccc(C(O)c2nc(-c3ccc(F)cc3OC)cs2)c1 (stereo not drawn)	nt	0.0	9.3%	2.2	2.9	17.1	nt
COc1cccc(-c2nc(CS(=O)(=O)CC(=O)N3CCN(C4CCCCC4)CC3)c(C)o2)c1	1.8%	-6.2	0.9%	-6.8	-3.6	-0.4	-14.1
COc1ccc(-c2ccc(CN3C(CC(C)C)C(=O)N(Cc4cn(CC5CCCCC5)nn4)CCS3(=O)=O)cc2)cc1OC (stereo not drawn)	nt	2.0	1.9%	3.6	-1.5	2.6	nt

Going on with the list:
SMILES	Sfp inh	CtBP-E1A inh	PINK1 modulator	D2 PAM	D2 ag	Six1-Eya2 inh	TRPV1 PAM
CC(=O)c1cccc(NC(=O)N2CCCC(C(=O)c3cc(F)ccc3F)C2)c1 (stereo not drawn)	6.4%	2.3	-2.1%	-0.2	6.1	1.0	0.2
CSCCC(NC(=O)c1ccccc1)C(=O)NCCCn1nc(C)cc1C (stereo not drawn)	nt	6.1	-1.2%	-4.2	-4.9	-4.9	-6.8
COc1cc(/C=C/C(=O)OCC(=O)NC(=O)NC23CC4CC(CC(C4)C2)C3)ccc1OCC#N	5.7%	0.8	0.7%	-8.5	-7.2	-2.0	18.2
CCOC(=O)c1nn(-c2cccc(OC)c2)c2nc(CC)c(C#N)c(=O)n12	35.5%	2.2	3.9%	-6.1	-1.9	1.3	-0.4
CC1CCCCN1C(=O)COC(=O)c1cc([N+](=O)[O-])ccc1N1CCOCC1 (stereo not drawn)	nt	9.7	-0.4%	-33.9	-4.6	-2.2	-5.1
O=C(Nc1ccc2nc(-c3cccs3)[nH]c2c1)c1ccco1	2.8%	?	4.8%	14.7	-1.2	?	-5.2
CCOc1cc(S(=O)(=O)NCC2OCCc3ccccc32)c(OCC)cc1-n1cnnn1 (stereo not drawn)	0.0%	1.4	2.8%[38.3 µM]	-3.3	0.5	0.6	5.0
Cc1ccc(NC(=O)CSc2ccc(-c3ccccn3)nn2)c(C)c1	-11.4%	-25.3	5.4%	-4.2	4.7	-26.2	16.3
CC(NC(=O)c1cc(Br)cs1)C1CCCO1 (stereo not drawn)	14.8%	10.7	0.0%	-8.4	1.0	-2.5	9.6
Cc1ccc(-c2nc(-c3ccncc3)no2)c(Cl)c1	-0.7%	nt	-0.1%	-20.7	1.5	-6.6	-3.8
Cc1ccc(C(C)NC(=O)c2ccc3c(c2)OCO3)cc1C (stereo not drawn)	13.8%	8.1	2.1%	-7.8	-2.2	4.6	-23.8
Cc1ccc(-n2c(C)cc(/C=C3\SC(=O)NC3=O)c2C)cc1	-6.6%	2.2	1.8%	-7.4	-1.3	14.1	-18.8

Outcome played no part in choosing rows (roughly 3.7% active in at least one column).
